# Source: PubChem BioAssay
# VACV mCherry inh – vaccinia inhibition (mCherry reporter); actives 0.63% (n = 310,000); AID 720579; Vaccinia virus mCherry reporter infection, fluorescence; about a quarter of the inactives have no number; Potency, µM (titrated, usually from 36.5 µM), for inactives: at the highest dose activity change, negative = inhibition, usual class: inhibitors; active = well fitted inhibition curve with a large enough effect; inconclusive = small, poorly fitted or top-dose-only effect; inactive = no such curve, though single readings can be large or run the other way; tested in A549 cells; also: nearly all actives have a fitted effect of over 35% in size; inactives centre near -10
# Vaccinia Venus – inhibitors of vaccinia virus (Venus reporter). actives 0.46% (n = 330,000). Vaccinia virus Venus reporter expression, fluorescence. Potency, µM (top dose mostly 36.5 µM), without a hit: at the highest dose activity change, negative = inhibition, actives largely listed as inhibitors; active means well fitted inhibition curve with a large enough effect; inconclusive means small, poorly fitted or top-dose-only effect; inactive means no such curve, though single readings can be large or run the other way; tested in A549 cells; also: nearly all actives have a fitted effect of over 30% in size; inactives centre near -10
# * = called active by the depositor; i = inactive; ? = inconclusive; . = not tested or not shown; & = joins results of further samples; [ ] = dose if it differs, or a comment. % is scaled to controls: 0 for no effect and ±100 for the full control effect; potency is read from the fitted curve at half-maximal effect.
structure	VACV mCherry inh	Vaccinia Venus
O=C(NCC1CCCO1)c1nn2c(C(F)(F)F)cc(-c3ccc(Br)o3)nc2c1Br (stereo not drawn)	-9%	-3%
COc1ccc(C(C)=O)cc1COC(=O)c1cccc(N(C)C)c1	-23%	-13%
CC(C)Cc1nn2cc(-c3cccc(Br)c3)nc2s1	-6%	3%
S=C(NC1CCCCC1)N1CCc2[nH]c3ccccc3c2C1	-18%	-8%
C/C(Cc1ccccc1)=N\NC(=O)c1cc(C(C)(C)C)[nH]n1	-4%	0%
COC(=O)CCSc1nc2sc3c(c2c(=O)n1Cc1ccccc1)CCC(C(C)(C)C)C3 (stereo not drawn)	-5%	-8%
CCOC(=O)c1[nH]c2ccccc2c1NC(=O)c1ccc(S(=O)(=O)N2CCCCC2)cc1	i	-9%
COc1ccccc1N1CCN(C(=O)c2ccc3c(c2)CCN3S(=O)(=O)c2ccccc2)CC1	-22%	-10%
COc1ccccc1OC(C)C(=O)NCC1(N2CCOCC2)CCCCC1 (stereo not drawn)	-9%	-8%
CN(C)c1ccc(N=Nc2ccc(/C=C/c3ccnc4ccccc34)cc2)cc1	100%[activator]	.
CCOC(=O)[C@H]1[C@H]2COc3ccccc3[C@@H]2N2C(=O)c3cc(OC)ccc3NC(=O)[C@@]12C	i	?
CC(C)Oc1ccccc1C(=O)NC(CO)C(=O)O (stereo not drawn)	-5%	-2%
COc1cccc(N2CCN(S(=O)(=O)c3ccc4nc(-c5ccccc5)[nH]c4c3)CC2)c1	.	?
O=C(CN1C(=O)COc2ccc(S(=O)(=O)Nc3ccccc3)cc21)NCc1ccccc1Cl	-12%	-4%
CN(C)CCN1CCN(C2CN(Cc3cn(Cc4cccc(C(F)(F)F)c4)nn3)S(=O)(=O)C2)CC1 (stereo not drawn)	-13%	2%
COc1ccc2ccccc2c1/C=N/Nc1ccc(Cl)c(C(=O)O)c1	?	12%
O=C(CCS(=O)(=O)c1cccc2nonc12)N1CCOCC1	-26%	-22%
COc1cccc(/C=C/C(=O)OCC(=O)Nc2nnc(-c3ccccc3)o2)c1	?	-12%
CCOc1ccc(NC(=O)CSc2nnc(-c3ccccc3Cl)n2Cc2ccco2)cc1	.	-13%
Cc1ccc(NS(=O)(=O)c2ccc(NC(=O)c3ccc(Br)o3)cc2)c(C)c1	?	-20%
Cc1c(NC(=O)CCc2ccccc2)cccc1[N+](=O)[O-]	0%	3%
CCCCn1c(=O)c2oc3ccccc3c2n(Cc2ccc(C)cc2)c1=O	-18%	-9%
COc1ccccc1-n1c(SCC(=O)NCc2ccc3c(c2)OCO3)nc2cc([N+](=O)[O-])ccc21	i	-14%
O=C1NC(=S)SC1=Cc1ccc(F)cc1	-3%	-19%
FC(F)(F)Oc1ccccc1-c1nnc(-c2cccc(C(F)(F)F)c2)o1	i	1%
Cc1ccc(NC(=O)c2ccccc2CCc2ccccc2)c(C)c1	-18%	-18%
CC(C)c1ccc(NC(=O)CCCN2C(=S)NC(C)(C)CC2C)cc1 (stereo not drawn)	i	-15%
N#Cc1cccc(NC(=O)CN2CCN(Cc3ccccc3)CC2)c1	-3%	-7%
Cc1nn(C)c(Sc2ccccn2)c1[N+](=O)[O-]	-8%	-10%
CC(NC(=S)Nc1ccc(Cl)cc1Cl)C(c1cccs1)N1CCCC1 (stereo not drawn)	-23%	4%

# Arranged by count of non-hydrogen atoms (lowest first): some entries from above
structure	VACV mCherry inh	Vaccinia Venus
O=C1NC(=S)SC1=Cc1ccc(F)cc1	-3%	-19%
Cc1nn(C)c(Sc2ccccn2)c1[N+](=O)[O-]	-8%	-10%
CC(C)Cc1nn2cc(-c3cccc(Br)c3)nc2s1	-6%	3%
Cc1c(NC(=O)CCc2ccccc2)cccc1[N+](=O)[O-]	0%	3%
S=C(NC1CCCCC1)N1CCc2[nH]c3ccccc3c2C1	-18%	-8%
COc1ccc(C(C)=O)cc1COC(=O)c1cccc(N(C)C)c1	-23%	-13%
N#Cc1cccc(NC(=O)CN2CCN(Cc3ccccc3)CC2)c1	-3%	-7%
FC(F)(F)Oc1ccccc1-c1nnc(-c2cccc(C(F)(F)F)c2)o1	i	1%
CCCCn1c(=O)c2oc3ccccc3c2n(Cc2ccc(C)cc2)c1=O	-18%	-9%
COc1cccc(/C=C/C(=O)OCC(=O)Nc2nnc(-c3ccccc3)o2)c1	?	-12%
CN(C)c1ccc(N=Nc2ccc(/C=C/c3ccnc4ccccc34)cc2)cc1	100%[activator]	.
CCOc1ccc(NC(=O)CSc2nnc(-c3ccccc3Cl)n2Cc2ccco2)cc1	.	-13%
O=C(CN1C(=O)COc2ccc(S(=O)(=O)Nc3ccccc3)cc21)NCc1ccccc1Cl	-12%	-4%
COc1ccccc1N1CCN(C(=O)c2ccc3c(c2)CCN3S(=O)(=O)c2ccccc2)CC1	-22%	-10%
CN(C)CCN1CCN(C2CN(Cc3cn(Cc4cccc(C(F)(F)F)c4)nn3)S(=O)(=O)C2)CC1 (stereo not drawn)	-13%	2%

# Remaining list, next part:
structure	VACV mCherry inh	Vaccinia Venus
COC[C@@H]1CCCN1c1ccc2c(c1)O[C@@H](COCc1ccccc1)CN([C@@H](C)c1ccccc1)S2(=O)=O	-11%	-13%
Cc1ccc(C#CC[N+]2(C)CCCCC2)cc1	-4%	-6%
CCOC(=O)c1ccc(NC(=O)CC2C(=O)N(c3cccc(OC)c3)C(=O)N2C2CCCCC2)cc1 (stereo not drawn)	-13%	-5%
O=C(NNC(=S)Nc1ccccc1)c1cccc(S(=O)(=O)N2CCOCC2)c1	-5%	-4%
Cc1ccc2c(c1)nnn2C1CCN(C(=O)Nc2ccccc2C)CC1	i	-14%
NC(=O)c1ccccc1NC(=O)COC(=O)C1(c2ccccc2)CC1	-7%	-18%
COCCOC(=O)c1c(C)oc2ccc(O)c(CN3CCC(C)CC3)c12 (tested in a mixture with another compound)	?	0%
O=C(Nc1ccc(OC(F)(F)F)cc1)c1cc2c(=O)n3ccccc3nc2s1	-5%	-7%
COc1cc(NC(=O)Nc2nnc(N3CCCCC3)s2)cc(OC)c1	-3%	-14%
CCC(C)c1ccc(OCCN2CCCC2)cc1 (stereo not drawn)	i	-12%
CCCCCCCCCCCCCCCCOC[C@@H](O)COP(=O)([O-])OCC[N+](C)(C)C	-17%[3.33 µM]	-8%[3.33 µM]
O=[N+]([O-])c1ccc(N2N=C(c3ccco3)CC2c2ccccc2)cc1 (stereo not drawn)	-13%	19%
CCOC(=O)C(CC)Sc1c(CC)cnc2c1c(=O)n(C)c(=O)n2C (stereo not drawn)	-7%	-10%
CSC1=NCCN1C(=O)c1cccs1	9%	8%
Cc1ccc(Nc2nc(N3CCOCC3)c3ccccc3n2)cc1	-4%[1.46 µM]	?
O=C(NCc1cccc2ccccc12)Nc1ccccc1	-11%	?
CC(=O)C1=C(O)C(=O)N(Cc2cccnc2)C1c1ccc(Cl)cc1Cl (stereo not drawn)	-13%	-6%
COc1ccc(-c2noc(CCC(=O)N3CCN(c4ccc(Cl)cc4)CC3)n2)cc1	i	-23%
Cc1ccc(NS(=O)(=O)c2ccc(NC(=O)N3CCCCC3)cc2)cc1	-6%	-20%
CC(Oc1ccc2c(-c3ccccc3)cc(=O)oc2c1)C(=O)NCCCn1ccnc1 (stereo not drawn)	-21%	-14%
CCc1ccc(C(=O)Nc2ccc3nn(-c4ccc(C)c(Cl)c4)nc3c2)cc1	-3%	-8%
N#CC(C#N)=c1ccc2c(c1)N1C(c3ccccc3)=CC(c3ccccc3)C3CCCCC31N=2 (stereo not drawn)	-7%	5%
COc1ccc(CNC(=O)CN2C(=O)CCn3nc(-c4ccccc4)cc32)c(OC)c1	-12%	-10%
COCCN1C(=O)C(=O)/C(=C(/O)c2cccc(OC)c2)C1c1ccncc1 (stereo not drawn)	-17%	-9%
CCOc1ccc(OCC)c(NC(=O)CCn2cccc2)c1	.	-6%
Cc1ccc(CNC(=O)c2ccc(N3CCC4(CC3)CC(c3cccc(Br)c3)=NO4)c(NC(=O)c3ccccc3)c2)cc1	-2%	-4%
CCCN(CCC)[C@@H]1CCc2cccc(O)c2C1	-21%	-19%
CCn1c(SCC(=O)Nc2cc(C)on2)nnc1-c1cccs1	-7%	8%
C=C[C@@H]1C[C@@]1(C)[C@@H](NP(=O)(c1ccccc1)c1ccccc1)c1ccccc1	i	-29%
COc1ccccc1CC(=O)Nc1cccc(S(=O)(=O)N2CCOCC2)c1	-12%	-10%
OC(c1cc(F)cc(Cl)c1)c1ncc(-c2cccc(C(F)(F)F)c2)[nH]1 (stereo not drawn)	13%	-14%
C=C1C(=O)C=C2CN(C(=O)c3ccccc3)[C@@](Cc3ccc(F)cc3)(C(=O)OC)[C@@H]12	?	8.9µM*
Cc1ccccc1N1C(=O)NC(=O)/C(=C\c2cnn(-c3ccccc3)c2)C1=O	-10%	-8%
Cc1ccn2c(NC3CCCC3)c(-c3ccccn3)nc2c1	?	?
COc1ccccc1/C=C/C=N/NC(=O)CN1CCN(S(=O)(=O)c2ccc(C)cc2)CC1	i	-20%
CCCCc1c(C)c(C#N)c2nc3ccccc3n2c1Nc1c(C)n(C)n(-c2ccccc2)c1=O	-30%	-21%
COc1ccc(CC2S/C(=N/N=C/c3ccccc3O)NC2=O)cc1 (stereo not drawn)	?	0%
CC1CCN(CCCNC(=O)C2CC(=O)N(C3CCCCCC3)C2)CC1 (stereo not drawn)	0%	5%
CC(C)Nc1c(N)c(=O)oc2ccccc12	.	?
CS(=O)(=O)N1CCC(C(=O)NCc2ccncc2)CC1	-13%	-10%
Cc1nn(-c2ccc(NC(=O)c3ccncc3)cc2)c(C)c1Cl	-12%	-14%
CC(C)c1ccc(NC(=O)CNC(=O)Cn2ccc3ccccc3c2=O)cc1	-7%&-6%	0%&-1%
Cc1ccc(N(Cc2cccs2)C(=O)c2ccccc2[N+](=O)[O-])cc1	-11%	-18%
CCN1CCN(C(=O)/C(=C/c2ccco2)NC(=O)c2ccccc2)CC1	-2%	4%
O=[N+]([O-])c1cc(S(=O)(=O)O)cc([N+](=O)[O-])c1NN(c1ccccc1)c1ccccc1	i	-8%
Cc1ccsc1C(=O)NCc1ccc(Cl)cc1	-8%[7.34 µM]	-1%[7.34 µM]
CCOc1ccc2oc(C(=O)NCc3nc4ccccc4[nH]3)c(C)c2c1	-25%	-9%
O=C(Cc1cccs1)Nc1c(C(=O)Nc2ccc(F)cc2)oc2ccccc12	-3%	0%
c1ccc2c(CCc3c[nH]c4ccccc34)ccnc2c1	?	66%[activator]
CC1(C)OC(=O)C2=C(C[C@@H](C3CCCC3)O[C@H]2CCc2cccc(Cl)c2)O1	32%[activator]	8%
COc1ccc(CCNC(=O)C2COc3ccccc3O2)cc1OC (stereo not drawn)	-1%	-9%
COc1cc(OC)c(N2CC34C=CC(O3)C(C(=O)O)C4C2=O)cc1Cl (stereo not drawn)	.	-13%
Cc1ccc(OC(=O)CSc2nnc(-c3ccc4c(c3)OCO4)o2)cc1	-11%	0%
CCOC(=O)C1=CN2CCCC[C@@H]2CC1=O	-15%	-9%
CCCCCCN1C[C@@H](O)[C@H](n2cc(COC(=O)c3ccccc3)nn2)C[C@@H]1c1ccc(Cl)cc1	i	-20%
O=C(O)c1ccccc1OC(C(=O)Nc1cc(Cl)cc(Cl)c1)c1ccccc1 (stereo not drawn)	-21%	5%
COc1ccc(NC(=O)CN2c3cccc4cccc(c34)S2(=O)=O)c(OC)c1	-1%	-1%
COc1ccc(N(CC(=O)NC2CCCCC2)C(=O)CCC(=O)Nc2nc(C)cs2)cc1	-10%	14%
NC(=O)COC(=O)c1ccc(S(=O)(=O)NCc2ccco2)cc1	-18%	-19%
COc1ccc(/C=C2\CCC(C3CCCC3)C2=O)cc1OC (stereo not drawn)	-12%	-2%

CC1CC(C)CN(c2ccc(C(=O)NCc3ccc4c(c3)OCO4)cc2[N+](=O)[O-])C1 (stereo not drawn)
  VACV mCherry inh: -8%	Vaccinia Venus: -3%

O=C(CSc1nc2ccccc2s1)NNC(=S)Nc1ccccc1
  VACV mCherry inh: -1%	Vaccinia Venus: -6%

CC1(C(=O)Nc2ccc3c(c2)OCCO3)CCN1C(=O)C/C=C/c1ccccc1 (stereo not drawn)
  VACV mCherry inh: -2%	Vaccinia Venus: 5%

O=C(Cn1ccn(-c2ccc(F)c(Cl)c2)c(=O)c1=O)NCCc1ccccc1
  VACV mCherry inh: ?	Vaccinia Venus: -5%

Nc1nc(SCC(=O)Nc2ccc(F)cc2)[nH]c(=O)c1NC(=O)c1ccc(F)c(F)c1
  VACV mCherry inh: -11%	Vaccinia Venus: -8%

Cc1ccc(/C=C(/C#N)C(=O)NC(=O)Oc2ccccc2)cc1
  VACV mCherry inh: -14%	Vaccinia Venus: -11%

COc1ccc(-c2cc(C(F)(F)F)nc(S(=O)(=O)CCCC(=O)Nc3cc(C)on3)n2)cc1OC
  VACV mCherry inh: -21%	Vaccinia Venus: -20%

O=C(Nc1ccc(S(=O)(=O)NCC2CCCO2)cc1)c1ccc(Cl)cc1[N+](=O)[O-] (stereo not drawn)
  VACV mCherry inh: ?	Vaccinia Venus: -13%

Cc1ccc2c(CC(=O)NCc3ccc4c(c3)OCO4)coc2c1
  VACV mCherry inh: -22%	Vaccinia Venus: -9%

CC1CCCCN1c1ccc(N)cc1C(N)=O (stereo not drawn)
  VACV mCherry inh: -13%	Vaccinia Venus: -22%

CCCOc1ccccc1C1SCC(=O)Nc2c1c(=O)[nH]n2C(C)CCC (stereo not drawn)
  VACV mCherry inh: .	Vaccinia Venus: -25%

Nc1ncc(CCN2CCOCC2)c(-c2ccc(F)cc2)n1
  VACV mCherry inh: i	Vaccinia Venus: -17%

Cn1c(N)cc(=O)n(C)c1=S
  VACV mCherry inh: -20%	Vaccinia Venus: -3%

# No enrichment for hits; 0.86% or so of the library scored in one or more.
